Screens from PubChem.
Beta2AR agonist = agonists of human beta-2 adrenergic receptor inducing internalization. P07550. Am2.2-beta2AR cells, FAP receptor internalization, flow cytometry; reference of the scale not given here. response, % (no concentration beside the values). 0.43% of 340,000 active;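 active means response above a set limit, near 3 SD of response in nonfluorescent compounds, cut at about 42% in these data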;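 further: stock transfer was 100 nL into about 11 µL; a reference agonist was the positive control; negative values mostly stem from fluorescent compounds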
HNF4A DNA FP = change in binding of human HNF4 alpha to DNA. P41235. HNF4a-FITC DNA binding, fluorescence polarization, 1 h. activity change, % at 10 µM. 0.3% of 360,000 active. AID 1224865; in the data active means activity change above about 30%, passing the limit was not always enough;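 further: controls were the assay level and a saturating level of protein; the project sought stronger binding though the title names inhibitors; some compounds called inactive have numbers as strong as hits; positive values seem to mean higher polarization but the record does not say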
A1 inh = inhibitors of the anti-apoptotic protein A1, read as caspase activation | MEF A1-2A-BIM cells, Caspase-Glo 3/7 luminescence, 3 h; percent of clofoctol response, vehicle zero | caspase activation, % (no concentration beside the values) | 0.066% of 330,000 active | AID 2462;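 active means over half of replicate activation scores above 10%, or exactly half above 10 with the replicate mean above 10; inconclusive means replicate mean below 10 yet half the replicates above 10; inactive means over half of replicates below 10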;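 further: wells of about 30 µL received 50 nL stock; many hits fall short of the cut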
UCH37 inh = human UCH37 deubiquitinating enzyme inhibition. 0.33% of 330,000 active. AID 588478. Q9Y5K5. purified proteasome/UCH37, Ub-AMC cleavage fluorescence. inhibition, % (no concentration beside the values);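 active means mean of two replicates above 20%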;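 further: 0% = compound-free wells with enzyme and 100% = wells lacking proteasome; stock transfer was 100 nL into about 20 µL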
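System: Proteasome-associated human UCH37 deubiquitinase; Input: 0.15 nM proteasome in added enzyme buffer; Also added: Ub-AMC substrate from 1 µM stock; Incubation: 30 min compound-proteasome preincubation then 25 min substrate reaction, room temperature; Detection: fluorescence, ex 355 nm, em 460 nm; Read-out: % inhibition of Ub-AMC cleavage fluorescence; Benchmarks: no-proteasome and no-compound wells.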
Vif TR-FRET = inhibitors of Vif binding to APOBEC3G peptide, primary screen, biochemical, TR-FRET, GST-Vif 1-94, biotin-A3G peptide, dose response retest (AID 1117319); TR-FRET GST-Vif / biotin-A3G peptide binding; higher % means a stronger effect; test concentration not given here; strong numbers were not always called active; inhibition, %; hits with a dose series show IC50 in µM; 0.57% of 260,000 active;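 active means above the screen mean plus three standard deviations and confirmed in dose response; inconclusive means results disagree or hit not tested in dose response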;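 further: Vif residues 1-94 fused to GST binding biotinylated APOBEC3G peptide 110-148; 0% = full assay without inhibitor and 100% = GST in place of GST-Vif; retest series ran down from 100 µM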
LANA-H2A inh = blocks KSHV LANA binding to histone H2A/H2B; cell-free LANA-H2A/H2B peptide, fluorescence polarization; inhibition, % (concentration not given with the values); 0.6% of 320,000 active; AID 2629; in the data active means inhibition mostly above about 10%, no sharp cut-off; inactive means mostly below about 6.7%;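 further: stock transfer was 7.5 nL into about 10 µL; 0% = median of vehicle wells and 100% = median of positive control wells; one replicate is shown; the record names a cut of 25% in any replicate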
Target sequence (Q9QR71 whole entry, looked up): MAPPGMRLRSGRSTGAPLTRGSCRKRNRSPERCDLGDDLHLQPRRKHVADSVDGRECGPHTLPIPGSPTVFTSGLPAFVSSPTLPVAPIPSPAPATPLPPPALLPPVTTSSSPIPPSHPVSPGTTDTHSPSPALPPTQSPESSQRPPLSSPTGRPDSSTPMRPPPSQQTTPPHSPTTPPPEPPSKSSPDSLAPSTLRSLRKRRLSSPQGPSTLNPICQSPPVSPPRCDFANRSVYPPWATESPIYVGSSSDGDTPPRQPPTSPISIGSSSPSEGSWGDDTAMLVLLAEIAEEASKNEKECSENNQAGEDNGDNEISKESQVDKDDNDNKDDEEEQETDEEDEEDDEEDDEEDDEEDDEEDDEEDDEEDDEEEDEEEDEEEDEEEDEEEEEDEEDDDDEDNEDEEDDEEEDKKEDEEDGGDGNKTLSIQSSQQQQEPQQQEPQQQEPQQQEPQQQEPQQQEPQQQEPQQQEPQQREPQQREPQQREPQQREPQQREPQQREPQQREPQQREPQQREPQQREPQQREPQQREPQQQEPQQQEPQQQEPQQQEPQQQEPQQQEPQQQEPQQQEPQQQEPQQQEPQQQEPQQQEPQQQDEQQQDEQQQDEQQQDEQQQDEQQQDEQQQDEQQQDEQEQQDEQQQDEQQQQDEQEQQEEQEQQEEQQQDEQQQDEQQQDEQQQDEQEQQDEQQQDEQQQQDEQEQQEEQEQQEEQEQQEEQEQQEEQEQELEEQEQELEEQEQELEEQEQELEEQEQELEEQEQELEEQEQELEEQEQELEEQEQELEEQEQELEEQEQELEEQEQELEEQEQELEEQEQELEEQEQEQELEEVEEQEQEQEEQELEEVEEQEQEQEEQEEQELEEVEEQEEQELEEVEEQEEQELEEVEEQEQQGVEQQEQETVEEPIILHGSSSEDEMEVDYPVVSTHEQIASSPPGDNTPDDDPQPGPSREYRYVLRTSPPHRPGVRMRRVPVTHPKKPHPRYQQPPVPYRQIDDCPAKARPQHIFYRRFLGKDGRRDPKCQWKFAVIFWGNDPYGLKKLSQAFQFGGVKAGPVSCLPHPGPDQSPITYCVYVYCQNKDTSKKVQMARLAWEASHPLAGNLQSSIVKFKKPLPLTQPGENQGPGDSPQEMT
Ecoli growth = inhibitors of Escherichia coli growth; OD600, 23 h; active compounds read low; OD600 absorbance (concentration not given with the values); 0.21% of 330,000 active;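 active means OD600 absorbance below the run mean of sample wells minus 3.6 SD, in any replicate, cut at about 0.56 in these data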;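 further: stock transfer was 300 nL into about 60 µL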
The depositor's hits bear a star; ? = inconclusive; . = not tested or not shown.

SMILES	Beta2AR agonist	HNF4A DNA FP	A1 inh	UCH37 inh	Vif TR-FRET	LANA-H2A inh	Ecoli growth
CCN(CC)c1ccc(S(=O)(=O)N2CCOCC2)cc1NC(=O)CSc1nnc(N)s1	-2.3	-1.2	-1.2	1.5	8.3%	0.9	0.616
CCN(CC)CCNC(=O)Cn1nc(Cc2ccccc2)c2ccccc2c1=O	-10.7	-1.2	0.5	1.6	-0.8%	-2.8	0.745
Cc1[nH]nc(-c2ccc(O)cc2O)c1-c1ccc(Cl)cc1	-0.2	2.8	-0.6	3.6	5.1%	-0.2	0.627
COC(=O)Nc1ccc(S(=O)(=O)N2CCCC(C(=O)NC3CCS(=O)(=O)C3)C2)cc1 (stereo unspecified)	-2.4	-0.6	0.3	5.4	27.6%	.	0.675
O=C(O)c1ccc[nH]c1=S	0.7	4.4	0.9	5.9	.	-5.5	0.649
COc1ccc(CCNC(=O)CSc2nnc3ccc(-c4cccnc4)nn23)cc1	-8.4	0.6	0.1	0.8	-2.6%	1.5	0.679
C/C(=N/NC(=O)c1nnn(-c2nonc2N)c1COc1ccccc1)c1ccccc1	2.6	7.1	-0.3	.	.	-4.4	.
CSc1nc2ccc(NC(=O)C3=NN(c4ccccc4)C(=O)CC3)cc2s1	-0.1	2.0	-0.3	6.4	-8.3%	-5.0	0.714
CSCCNCc1cn(-c2ccc(F)cc2F)nc1-c1ccccc1C	-5.5	2.0	0.6	4.0	-4.2%	-2.1	0.692
CN(C)C/C(Cl)=C(\Cl)c1ccccc1	-1.3	-2.8	0.5	0.5	5.5%	1.4	.
Cc1cc(O)c(C(C)C)cc1NC1=NS(=O)(=O)c2ccccc21	-1.0	-0.2	0.4	1.7	68.8%	-5.5	0.685
CC(C)n1nc(C(=O)Nc2ccc3c(c2)OCO3)c2ccccc2c1=O	0.3	-1.9	-1.5	3.0	-4.4%	0.1	0.7

Shown with two lines to a compound: entries from further up.
Second line of a record – Beta2AR agonist | HNF4A DNA FP | A1 inh | UCH37 inh | Vif TR-FRET | LANA-H2A inh | Ecoli growth
CN(C)C/C(Cl)=C(\Cl)c1ccccc1
→ -1.3 | -2.8 | 0.5 | 0.5 | 5.5% | 1.4 | .
Cc1cc(O)c(C(C)C)cc1NC1=NS(=O)(=O)c2ccccc21
→ -1.0 | -0.2 | 0.4 | 1.7 | 68.8% | -5.5 | 0.685

The listing continues:
SMILES	Beta2AR agonist	HNF4A DNA FP	A1 inh	UCH37 inh	Vif TR-FRET	LANA-H2A inh	Ecoli growth
CCCn1c(=O)n(C)c(=O)c2c(SCC(=O)NC34CC5CC(CC(C5)C3)C4)nc(CC(C)C)nc21	2.6	-0.1	0.4	2.3	.	-0.9	0.743
Cc1ccc(C)c(OCCC(=O)NCCc2ccc(Cl)cc2)c1	-3.6	2.7	0.7	0.1	.	2.3	0.701
O=C1COc2ccc(N3C(=O)C=CC3=O)cc2N1	.	.	0.6	.	-16.7%	2.2	.
O=C(CCCn1nnnc1CN1CCOCC1)N1CCC(c2ccccc2F)C1 (stereo unspecified)	-3.6	-2.7	.	-1.5	-2.9%	.	0.706
C=CC(=O)NC1CC2CCC1(C)C2(C)C (stereo unspecified)	7.4	-0.7	0.1	4.1	6.0%	0.4	0.673
CCS(=O)(=O)c1ccccc1C(=O)NC1CCCc2ccccc21 (stereo unspecified)	-5.8	2.3	-0.9	2.0	.	-0.9	0.693
COC(=O)c1cc2ccsc2n1Cc1ccccc1F	-5.0	-3.4	0.4	3.8	0.9%	1.7	0.691
O=C(Cn1nc(Cc2cccnc2)c2ccccc2c1=O)N1CCN(C(=O)c2ccco2)CC1	2.7	4.5	0.0	1.5	?	-3.6	0.729
COc1ccc(CC(=O)c2c(O)cc(O)cc2O)cc1OC	-2.6	-0.7	-0.4	1.9	7.6%	5.1	0.721
Cc1ccc(/C=C2/NC(=O)[C@H](C)NC2=O)cc1	-14.3	-0.4	0.0	0.0	-5.8%	3.7	0.685
COc1ccc(-c2nc(Cn3c(SCc4ccccc4F)nc4ccncc43)c(C)o2)cc1	38.6	7.2	-0.3	1.6	-8.3%	4.6	0.734
c1ccc(-c2ccccc2OCCOCCN2CCCCC2)cc1	15.4	-3.9	0.2	3.7	-5.1%	4.2	0.637
CC1=CC(C)(C)n2c(O)c(N=N)c3c(C)ccc1c32	0.1	2.3	-0.2	7.3	14.6%	-2.0	0.646
Cc1ccccc1-c1noc(-c2cccs2)n1	2.1	-1.1	-2.9	7.1	-7.5%	2.3	0.769
NC(=O)c1sc2cc(C(F)(F)F)cnc2c1-c1ccccc1	-0.6	2.0	0.6	4.8	1.8%	2.9	0.647
Cc1[nH]c2ccccc2c1SCc1nnc(SCc2ccc(Cl)cc2)n1C	2.5	-2.5	-0.5	2.1	-8.0%	-5.2	0.673
CC(=O)N1c2ccc(S(=O)(=O)N3CCC(C(=O)Nc4ccccn4)CC3)cc2CC1C (stereo unspecified)	-5.2	-0.6	0.4	5.1	.	2.7	0.711
Cc1sc2nc(C(C)C)oc(=O)c2c1C	-0.4	3.0	1.7	-1.1	3.6%	4.2	0.688
COc1ccc(CNS(=O)(=O)c2ccc(N3CCCC3)cc2Br)cc1	-4.8	-2.5	.	7.0	-4.0%	.	0.716
O=Cc1ccc(N2N=C(c3ccccc3)CC2c2ccccc2)cc1 (stereo unspecified)	31.9	-2.8	0.7	-376.4	-1.1%	5.7	0.652
Cc1ncoc1C(=O)N1CCCC(C(=O)Nc2cccc(-c3ccc(F)cc3)c2)C1 (stereo unspecified)	-8.4	-2.0	0.4	1.7	0.7%	1.4	0.725
O=[N+]([O-])c1ccc(OCc2n[nH]c(=S)n2-c2ccccc2)cc1	4.8	-1.9	2.0	6.7	.	-0.4	0.642
O=C(NN1CCOCC1)c1c(-c2ccccc2)sc2ccccc12	1.3	3.2	-0.3	3.1	.	0.8	0.666
Fc1ccc(-c2nc(-c3cccs3)[nH]c2-c2ccc(F)cc2)cc1	-10.3	1.5	-0.8	-103.1	.	-0.1	0.652
CC(Nc1nc(N2CCNCC2)nc2ccccc12)c1ccccc1 (stereo unspecified)	-0.2	3.0	-0.8	-162.8	.	-0.2	0.669
COc1ccc(S(=O)(=O)N2CCOCC2)cc1C(=O)Nc1nc2ccccc2s1	-0.2	-2.1	-0.3	-28.9	0.1%	4.1	0.697
CCc1nnc(SCC(=O)NC2CCCCC2)nc1CC	-9.5	-3.7	-0.3	5.5	61.3%	-0.7	0.658
Cc1cc(C)cc(NC(=O)CSCc2cnn(-c3ccccc3)c2-n2cccc2)c1	2.0	-0.2	1.3	4.8	-0.6%	-3.7	0.709
Cc1ccc(S(=O)(=O)N2CCC(C(=O)Nc3nnc(C)s3)CC2)cc1	2.3	-1.6	0.2	1.6	-9.7%	-7.3	0.718
CCc1ccc2c(COC(=O)c3n[nH]c4ccccc34)cc(=O)oc2c1	13.8	-1.9	-1.1	0.6	-5.9%	4.7	0.713
COc1ccc(C(=O)Nc2sc(C(=O)N(C)C)c(C)c2C#N)cc1[N+](=O)[O-]	1.3	2.6	-1.4	18.0	2.8%	-1.7	0.656
CCN(CC)c1ccc(NC(=O)c2ccc3c(c2)OCO3)c(C)c1	-12.2	0.8	-0.1	1.6	.	-2.4	0.7
CN(C(=O)CC1C(=O)NCCN1Cc1cccc(C(F)(F)F)c1)C1CCOCC1 (stereo unspecified)	1.5	0.4	0.4	-23.2	-3.7%	-0.3	0.701
O=C(COC(=O)CCSc1ccccc1)Nc1cc(F)ccc1F	1.1	-0.3	2.0	1.7	-11.2%	-1.2	0.638
O=C(CSC(=S)N1CCOCC1)Nc1ncc2c(n1)CC(c1ccco1)CC2=O (stereo unspecified)	-5.6	2.4	-0.4	3.9	.	-1.9	0.709
CCC1C(=O)N(c2nc(C)cc(C)n2)N=C1C (stereo unspecified)	-1.3	-2.9	0.5	2.1	-0.7%	5.0	0.677
Cc1nnc(N2CCOCC2)c2nn(-c3cccc(Cl)c3)c(C)c12	-53.4	21.3	0.5	-16.5	-8.1%	3.1	0.708
CNC(=O)c1cc(Nc2nnc(-c3ccc(C)c(S(N)(=O)=O)c3)c3ccccc23)ccc1OC	4.6	2.3	0.3	6.6	-4.4%	4.1	0.663
O=C1CS/C(=N/N=C/c2ccncc2)N1	3.9	0.3	0.6	.	-1.4%	0.4	.
CC(C)Cn1cnc2c(SCc3ccccc3Cl)nc(N)nc21	-13.3	1.9	.	1.2	-6.3%	.	0.692
COc1ccccc1CN1CCN(C(=O)c2cccc3ccccc23)CC1	7.1	5.6	0.6	6.1	.	-5.1	0.685
O=C(NCCc1ccc([N+](=O)[O-])cc1)c1ccccc1	1.7	-2.4	-0.2	7.3	.	0.0	0.653
CCOc1ccccc1-c1nc(-c2ccc(NC(=O)c3ccc(Br)o3)cc2)no1	.	.	-9.3	-8.0	0.1%	-1.4	0.775
CCOC(=O)COc1ccc2c(C#N)c3ccccn3c2c1	-3.9	-6.2	.	-89.0	.	.	0.644
CCCN(CCC)CCN1C(=O)C2C(C(=O)Nc3cccc(SC)c3)C3C=CC2(O3)C1C(=O)NC1CCCCC1 (stereo unspecified)	-6.4	1.2	-0.5	0.6	.	-1.2	0.663
O=C(O)c1c[nH]c2ccc(S(=O)(=O)N3CCOCC3)cc12	1.7	0.9	0.4	-3.2	0.7%	3.6	0.812
C(#Cc1c(-c2ccsc2)sc2ccccc12)c1ccsc1	4.6	-3.1	2.0	-8.2	.	3.4	0.719
Cc1ccc(S(=O)(=O)n2nc(OC(=O)c3ccco3)cc2N)cc1	-2.1	-1.6	0.6	5.0	7.8%	2.5	0.68
O=C(CCC1CCCN(C(=O)Cn2cnnn2)C1)NCc1ccc(F)c(F)c1 (stereo unspecified)	0.7	-3.3	0.1	2.6	?	3.2	0.672
CCC(CC)C(=O)NCCc1cc2c(C)ccc(C)c2[nH]c1=O	3.3	-0.6	1.1	-0.1	2.0%	-3.1	0.743
O=C(OCCN1CCN(C2=NS(=O)(=O)c3ccccc32)CC1)c1ccccc1F	-9.2	4.5	0.9	0.2	.	-2.6	0.665
CC1CN(C(=O)N2CCOCC2)CCN1C(=O)N1CCOCC1 (stereo unspecified)	0.4	-1.9	1.5	0.7	.	-2.8	0.697
COc1ccc(CCNC(=O)CCNC(=O)c2ccc([N+](=O)[O-])cc2)cc1	5.8	-1.4	0.9	4.8	2.0%	0.4	0.706
COc1ccccc1NC(=O)CSc1nnnn1-c1ccccc1F	2.2	6.1	-0.9	2.5	-9.6%	-2.6	0.659
Cc1ccc(Cl)cc1S(=O)(=O)N1CCC(C(=O)NC2CCN(Cc3ccccc3)CC2)CC1	5.7	1.3	-0.4	-0.7	-1.9%	-3.6	0.703
CS/C(=N\NC(N)=O)c1ccccc1	1.1	-0.2	-0.7	.	.	-2.7	.
CN(CC(=O)Nc1cccc(F)c1)C(=O)c1ccc(N2CCOCC2)c([N+](=O)[O-])c1	-2.4	-20.2	1.2	3.1	4.5%	0.8	0.727
COc1ccccc1-c1nc(C#N)c(NCCCn2ccnc2)o1	-6.7	-5.8	2.2	-293.3	-0.9%	-2.0	0.64
C/C(=N\Nc1ccc(S(=O)(=O)N2CCOCC2)cc1[N+](=O)[O-])C(C)C	-5.1	-5.4	-1.3	.	11.2%	-4.5	.
COc1ccc(C(=O)Nc2cc(C)on2)cc1[N+](=O)[O-]	5.1	-6.7	0.3	0.0	-10.4%	5.0	0.664
Cc1cccc(Oc2ccc(S(=O)(=O)N3CCCCC3)cc2N)c1	6.5	-0.8	-0.2	4.6	-5.7%	-1.5	0.684
CCCn1c(C)cc(C(=O)COC(=O)CN=C2NS(=O)(=O)c3ccccc32)c1C	-7.9	-4.3	-0.5	-0.9	?	0.5	0.692
